High-throughput results from PubChem BioAssay.
Sa ugtP lethal – growth inhibition of ugtP-null S. aureus, primary screen, RN4220 ugtP deletion, OD600 | 16 h; some inactives read as strong as hits | growth inhibition, % (test concentration not listed) | 330,000 tested, 0.54% active | AID 1259309, 2017;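 active = z-score under -3 and OD600 up to 0.15 on both plates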;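 also: plate controls were untreated wells for no effect and antibiotic for full effect; wells of about 80 µL received 100 nL stock; the first replicate is given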
BJeLR viability – MLPCN primary cell-based screen for lethality selective to Ras in HRASV12 cells; inhibition, % (concentration not given with the values); BJeLR (HRASV12) viability, CellTiter-Glo ATP luminescence, 48 h; reference of the scale not given here; 300,000 tested, 0.17% active;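 active = replicate mean above 50%; inconclusive = above 50% but judged a plate artefact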;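 also: 50 nL library stock added to about 25 µL; numbers are from one replicate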
RN4220 kill – growth inhibition of S. aureus RN4220, primary screen, OD600; 16 h; inhibition, % (concentration not given with the values); 330,000 tested, 0.33% active; AID 1259311, 2017;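 active = z-score of -3 or lower and OD600 up to 0.18 on both plates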;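 also: plate controls were untreated cells for no effect and reference antibiotic for full effect; stock transfer was 100 nL into about 80 µL; one replicate is shown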
Mtb hypoxia inh – PubChem AID 1159583. M. tuberculosis hypoxia-regulated fluorescent reporter, fluorescence. 300,000 tested, 0.1% active. fluorescence inhibition, % (test concentration not listed);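 active = 35 to 45% if threefold the growth effect, above 45% if 1.5-fold the growth effect; inactive = the rest, general growth blockers included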;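 also: wells of about 50 µL received 100 nL stock; 0% = vehicle wells and 100% = reference inhibitor wells; whole bacteria with a GFP reporter of the hypoxia response; strong numbers were not always called active; many hits fall short of the cut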
Bead autofluor – flagged as autofluorescent in microsphere protease counterscreen | compound autofluorescence counterscreen, microsphere flow cytometry; hits give high values | fluorescence intensity (no concentration beside the values) | 360,000 tested, 3.1% active;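 active = at least 3 SD above the mean of all compounds, about 16000 in these data; inconclusive = too few beads counted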;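 also: 100 nL of 1 mM stock went into each well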
PrP UTR inh – inhibition of PrP 5' UTR reporter expression; AID 488862, 2010; cell-based PrP 5' UTR mRNA reporter, plate reader; inhibition, % (concentration not given with the values); 340,000 tested, 0.35% active;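 active = every replicate at 50% or more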;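 also: 0 = median of the neutral control wells; tested in H4 reporter cells; numbers are from one replicate; inactives centre near -14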
Mtb hypoxia inh growth – recorded beside Mtb hypoxia inh, whose call it bears; growth inhibition, %; measured here: M. tuberculosis growth (absorbance);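 0% = vehicle and 100% = reference antibiotic; read after six days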
* = called active by the depositor; ? = inconclusive; . = not tested or not shown; & = joins results of further samples.

#	mol	Sa ugtP lethal	BJeLR viability	RN4220 kill	Mtb hypoxia inh
1	C=CCn1c(=O)[nH]c2cc(C(=O)N3CCN(c4cccc(Cl)c4)CC3)ccc2c1=O	-9	-1	0.9	-4
2	COCCCNC(=S)NN=Cc1ccc(N(C)C)cc1	1	.	4.2	12
3	COc1ccc(C(=O)N2CCN(CCCc3ccccc3)CC2)cc1OC	10	-12	6.9	17
4	CC(C)Oc1ccc(S(=O)(=O)N2CCCCC2)cc1NC(=O)CN1C(=O)NC(C)(C2CC2)C1=O (stereo not drawn)	-2	.	4.0	20
5	CNCCc1c(C)n[nH]c1C	-8	19	-3.0	0
6	CNS(=O)(=O)c1cccc(C(=O)OCC(=O)c2cc(C)n(-c3ccc4c(c3)OCO4)c2C)c1	-5	0	8.2	-4
7	Cc1ccc(S(=O)(=O)NNC(=O)Cc2cccn2C)cc1	0	-8	6.8	2
8	O=C(CCN1C(=O)c2ccc([N+](=O)[O-])cc2C1=O)Nc1nccs1	1	2	4.4	3
9	CC(C)Cc1nnc(NC(=O)Cc2ccccc2[N+](=O)[O-])s1	11	5	-0.9	-1
10	CCCCn1c(SCC(=O)N2CCc3ccccc32)nnc1-c1ccncc1	-8	2	1.4	-6
11	Cc1ccc(NC(=O)CCCSc2ccccc2)cc1S(=O)(=O)N1CCOCC1	0	3	-17	-9
12	CN1CCCC(C(=O)C(C#N)c2ccccc2)C1 (stereo not drawn)	0	2	-0.1	.
13	CC(C)(C)c1ccc(O)c(C=NO)c1	-10	.	11	21
14	NC(=O)c1cc2c(s1)-c1cc(Cl)ccc1SC2	-4	13	-1.0	4
15	COc1cc(NC(=O)c2ccccc2)ccc1NC(=O)c1cc2ccccc2o1	4	4	3.3	5

#	Mtb hypoxia inh growth	Bead autofluor	PrP UTR inh
1	6	10530	-4
2	2	.	.
3	9	3780	-18
4	11	4232	-14
5	3	3286	5
6	3	2993	-10
7	7	4275	-25
8	15	4540	-19
9	-2	9529	-19
10	7	.	-13
11	3	4779	-17
12	.	4814	-24
13	5	.	.
14	1	4508	-6
15	7	3760	-3

(further entries)
#	mol	Sa ugtP lethal	BJeLR viability	RN4220 kill	Mtb hypoxia inh
16	Cc1ccc2[nH]c(=O)c(CN(CCO)Cc3nnnn3CCc3ccccc3)cc2c1	-2	9	0.6	.
17	O=C(CC1CC=CCCC(Cc2ccc(F)cc2)C(=O)OC(c2ccccc2)CNC1=O)NCCO (stereo not drawn)	6&4&1&-9	.	9.0&5.6&9.3&5.4	3&20&-4&12
18	CCc1c(C(=O)NNC(=S)NCc2ccccc2)csc1C	1	6	2.7	-4
19	COC(=O)c1cnn(-c2nc3c(C)cccc3s2)c1C	0	6	19	12
20	NC(=O)N/N=C/c1ccccc1OCc1cccc2ccccc12	.	-2	.	.
21	CCC(=O)Nc1ccc(C(=O)NNC(=O)c2cc(OC)c(OC)c(OC)c2)cc1	-2	2	-0.6	-6
22	CCC(C)(C)C1CCC2(CC1)NC(=O)N(CC(=O)N(C)Cc1ccc3c(c1)OCCO3)C2=O (stereo not drawn)	2	.	4.7	1
23	O=C(N/N=C/c1ccc(OC(F)F)cc1)c1cc[n+]([O-])cc1	.	-3	.	.
24	ONC(=Nc1ccccc1Cl)c1c(F)cccc1F	-9	-2	0.1	-9
25	CC(=O)Nc1ccc(S(=O)(=O)N2CCN(c3ccc(C)c(Cl)c3)CC2)cc1	-5	-9	0.0	-6
26	O=C(Cn1ccc([N+](=O)[O-])n1)NCCc1c[nH]c2ccccc12	5	0	-2.3	13
27	CC(C)CN1C(=O)c2ccc(C(=O)NCc3ccccn3)cc2C1=O	-3	-5	2.3	-2
28	Cc1ccccc1OCC(=O)Nc1ccc([N+](=O)[O-])cc1	-1	-6	-1.7	-2
29	COc1cc(SC)ccc1C(=O)Nc1ccncc1	0	8	-4.4	-10
30	CCOCCCNC(=O)c1cn(CC)c2ccc(S(=O)(=O)N(C)C3CCCCC3)cc2c1=O	16	4	6.8	9

#	Mtb hypoxia inh growth	Bead autofluor	PrP UTR inh
16	.	2561	-6
17	-2&5&3&4	.	.
18	-4	2297	1
19	11	2386	-18
20	.	4231	-15
21	-3	4516	-10
22	-1	3582	4
23	.	3018	-1
24	-3	4480	0
25	-4	4461	12
26	8	4470	-16
27	7	4222	-18
28	2	3095	4
29	1	2166	-8
30	8	5717	-9

(more compounds)
#	mol	Sa ugtP lethal	BJeLR viability	RN4220 kill	Mtb hypoxia inh
31	Cc1ccc(C)c(OCc2ccc(C(=O)NN)o2)c1	5	-4	4.6	6
32	CC(=O)c1ccc(NC2CC(O)C(O)CO2)cc1 (stereo not drawn)	4	-11	1.5	5
33	O=c1[nH]c2ccccc2nc1/C=C/c1ccc(F)cc1	-7	7	11	5
34	COc1ccc(CNC(=S)NCc2ccc(F)cc2)cc1OC	4	-8	0.0	1
35	CCn1c(C)nc2cc(C(=O)N/N=C/c3ccccc3C)ccc21	.	0	.	.
36	Cc1ccc(S(=O)(=O)N(C)Cc2ccc(C(=O)NN=Cc3ccc(OC(F)F)cc3OC(F)F)cc2)cc1	-6	.	2.7	-8
37	O=C(CON=C1CCCc2nonc21)Nc1ccccc1Cl	3	.	2.8	9
38	C/C(=N\NC(=O)c1cc(-c2ccco2)nc2ccccc12)c1cccnc1	.	-2	.	.
39	CCN(c1ccccc1)S(=O)(=O)c1ccc(OC)c(NC(=O)COc2ccc(C(C)=O)cc2)c1	3	-2	2.0	9
40	CN(CCO)c1ncnc2nc[nH]c12	10	-3	6.1	8
41	COC(=O)c1ccc(-n2cc(-c3ccc(OC)cc3)[nH]c2=S)cc1	5	.	7.7	.
42	COc1ccc(OC)c(C(=O)CN2C(=O)C(=O)N(C3CCCC3)C2=O)c1	4	.	4.1	8
43	O=C(CCCCCBr)N1CCC(CC2CC(c3cccc(Br)c3)=NO2)(C(=O)NCC2CCCCC2)CC1 (stereo not drawn)	-9	-11	-2.5	-10
44	Cc1oc2c(C)c(O)ccc2c(=O)c1-c1nncn1-c1ccccc1	-1	.	3.1	-9
45	COC(=O)c1sc(Nc2ccccc2)nc1C	9	-2	6.0	2

#	Mtb hypoxia inh growth	Bead autofluor	PrP UTR inh
31	-7	6158	-34
32	-7	3926	-5
33	-1	5620	-48
34	9	5812	-19
35	.	3955	-54
36	-7	.	.
37	3	.	.
38	.	4404	-25
39	-2	5135	-14
40	6	5823	-25
41	.	2635	6
42	8	3866	-18
43	1	3872	-9
44	-6	4650	-23
45	0	9025	-43

The listing continues.
#	mol	Sa ugtP lethal	BJeLR viability	RN4220 kill	Mtb hypoxia inh
46	CCOc1ccccc1N1CC(C(=O)NCCc2ccc(S(N)(=O)=O)cc2)CC1=O (stereo not drawn)	-13	-13	2.1	2
47	O=C(Nc1ccccc1[N+](=O)[O-])c1ccc(S(=O)(=O)N2CCCC2)cc1	-5	14	1.8	-2
48	Cc1nc2oc3ccc(Cl)cc3c(=O)c2cc1C(=O)O	7	-3	6.6	1
49	Cc1ccc(NC(=O)c2cn(CCC#N)nc2-c2cccs2)c([N+](=O)[O-])c1	0	9	1.4	6
50	Cc1sc2nc(SCC(=O)N3CCN(CCO)CC3)n(-c3ccccc3)c(=O)c2c1C	0	8	3.3	-10
51	COc1cc(C(=O)N(CCc2ccccc2)C2=CC3CCC(C2)N3C)cc(OC)c1OC (stereo not drawn)	-2	5	-1.2	.
52	Nc1ccc(N2CCCCC2)c2nonc12	10	1	0.9	1
53	CCN(CC)C(=O)c1ccc(NC(=O)c2sccc2-c2ccccc2)cc1	7	0	5.7	7
54	CC(=O)Nc1ccc(NC(=O)COC(=O)c2cc(S(=O)(=O)N(C)C)ccc2N2CCCC2)cc1	3	3	2.9	1
55	CCCC(=O)Nc1cccc(-c2cn3cccnc3n2)c1	9	-10	4.6	-8
56	CC(C(=O)N1c2ccccc2Sc2ccccc21)n1nnc(-c2cccs2)n1 (stereo not drawn)	7	-2	22	10
57	COc1ccc(NC(=O)C2=C(C)C(=O)OC23CCC(C)CC3)cc1Cl (stereo not drawn)	4	-3	5.0	4
58	CCOc1cc(-c2cc(-c3ccc(C)o3)nc(N)c2C#N)ccc1O	-9	-3	12	14
59	Fc1cc(F)c2nc(Nc3nc4cc5c(cc4s3)OCO5)sc2c1	-22	-21	-5.4	-2
60	CC(NC(=O)[C@H](C)N1C(=O)N2CCc3c([nH]c4ccccc34)[C@@]2(C)C1=O)c1ccccc1 (stereo partly drawn)	-7	-2	6.8	.

#	Mtb hypoxia inh growth	Bead autofluor	PrP UTR inh
46	4	20308*	-21
47	8	5490	-28
48	0	4089	-6
49	7	2743	-9
50	6	9044	-26
51	.	2476	-4
52	3	3405	-9
53	1	4585	3
54	-6	?	-7
55	-8	3052	3
56	6	7908	-32
57	7	3985	-25
58	22	5195	-25
59	-5	2932	-59
60	.	5753	-27

Profiles, looked up by structure:
Shown for CC(=O)Nc1ccc(NC(=O)COC(=O)c2cc(S(=O)(=O)N(C)C)ccc2N2CCCC2)cc1 : Sa ugtP lethal: 3; BJeLR viability: 3; RN4220 kill: 2.9; Mtb hypoxia inh: 1; Mtb hypoxia inh growth: -6; Bead autofluor: ?; PrP UTR inh: -7
Shown for Cc1ccc(NC(=O)c2cn(CCC#N)nc2-c2cccs2)c([N+](=O)[O-])c1 : Sa ugtP lethal: 0; BJeLR viability: 9; RN4220 kill: 1.4; Mtb hypoxia inh: 6; Mtb hypoxia inh growth: 7; Bead autofluor: 2743; PrP UTR inh: -9
Shown for COc1ccc(NC(=O)C2=C(C)C(=O)OC23CCC(C)CC3)cc1Cl (stereo not drawn) : Sa ugtP lethal: 4; BJeLR viability: -3; RN4220 kill: 5.0; Mtb hypoxia inh: 4; Mtb hypoxia inh growth: 7; Bead autofluor: 3985; PrP UTR inh: -25

The list continues.
#	mol	Sa ugtP lethal	BJeLR viability	RN4220 kill	Mtb hypoxia inh
61	O=C(NC1CCCCCC1)c1c(O)nc2sccn2c1=O	3	-5	5.1	13
62	CNC(=S)Nc1cccc2[nH]ncc12	5	-1	3.1	9
63	N#CC1(NC(=O)Cn2ncc(Cl)c(Cl)c2=O)CCCCC1	5	13	3.8	10
64	COC(=O)COc1ccc(S(=O)(=O)N2CCc3ccccc3C2)cc1C	12	-1	10	15
65	COc1ccc(N2CC(C(=O)NC3CC(C)(C)NC(C)(C)C3)CC2=O)cc1 (stereo not drawn)	0	-5	-0.7	.
66	Nc1ccc(-c2cc3ccccc3c(=O)o2)cc1	-1	.	11	3
67	CCOc1ccc(C(=O)Nc2cc(OC)ccc2OC)cc1	6	0	4.0	5
68	CC(C)CCn1c(N)c(C(=O)OCC2CCCO2)c2nc3ccccc3nc21 (stereo not drawn)	-14	-4	6.9	9
69	CCCN1C(=O)/C(=C/c2ccncc2)SC1=S	-6	6	1.6	3
70	CCCCOc1ccc(-c2nc(SCC(N)=O)n[nH]2)cc1	21	4	8.3	8
71	CCN(C(=O)COc1ccc(C(C)=O)cc1)c1cccc2ccccc12	7	.	4.2	7
72	CC(=O)Nc1ccc(S(=O)(=O)NC2(C(F)(F)F)N=C(c3ccccc3)NC2=O)cc1 (stereo not drawn)	13	1	6.3	7
73	O=C(NCCOc1ccccc1)c1cccc2c1C(=O)c1ccc(Cl)cc1S2(=O)=O	-14	.	8.3	2
74	COc1cccc(C(=O)OCC(=O)N2CCc3ccccc32)c1OC	2	.	1.7	9
75	CN(CC(=O)Nc1ccc(F)c(F)c1F)C(=O)c1ccc2c(c1)NC(=O)CS2	11	.	7.2	6
76	COC(=O)[C@H](Cc1ccccc1)NC(=O)Nc1ccc(S(N)(=O)=O)cc1	.	-11	.	.
77	CCSC(=O)N(CC)CC(=O)Nc1c(CC)cccc1CC	0	-2	5.5	10
78	CCC(=O)N1CCc2cc(S(=O)(=O)N3CCN(c4cc(Cl)ccc4C)CC3)ccc21	4	-8	0.3	1

#	Mtb hypoxia inh growth	Bead autofluor	PrP UTR inh
61	9	5905	-14
62	0	10068	-22
63	-1	4714	-7
64	3	5734	-20
65	.	6364	3
66	2	3763	70*
67	-1	6922	-61
68	8	3356	-24
69	4	2074	-20
70	6	20074*	-31
71	4	2940	-18
72	2	8152	.
73	5	4233	-34
74	1	5916	-27
75	6	6564	22
76	.	3234	4
77	7	3641	-15
78	-6	5922	3
